Ba CapD inh: inhibitors of Bacillus anthracis CapD enzyme; purified CapD enzyme, fluorescence intensity read-out; active compounds read low; some hits fall short of the stated cut; z-score (concentration not given with the values); hit rate 0.23% among 140,000;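 active = z-score under -4 in either of two replicates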;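 note: stock transfer was 100 nL into about 40 µL; score is relative to mean and spread of the plate; one replicate is shown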
AID504770: growth inhibitors of E. coli YBA685 in a screen for V. cholerae RctB (chromosome II replication) inhibitors. E. coli YBA685 rctB-dependent plasmid, OD600 growth, 3 h; active compounds read low. z-score (no concentration beside the values). hit rate 0.27% among 130,000. AID 504770;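 active = z-score under -2 on both plates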;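 note: wells of about 30 µL received 100 nL stock; score is relative to mean and SD of the test wells; the first replicate is given; strong numbers were not always called active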
Numbers without * were called inactive; i = inactive; · = not tested or not shown; & = joins results of further samples. This is a random part of the collection; any-hit rate near 0.39%.

compound	Ba CapD inh	AID504770
O=C(C1CCN(S(=O)(=O)N2CCCC2)CC1)N1CCC2(CC1)OCCO2	0.83	-0.1
CCc1ccccc1NC(=O)NCc1ccccc1OC	-0.675	-0.25
Cc1cc(NNC(=O)c2ccc(Cl)cc2)nc2c1c(C)nn2C	-0.44	0.8
c1ccc2c(c1)C(=Nn1cnnc1)c1ccccc1-2	-0.89	0.75
O=C(Nc1cc(C(=O)N2CCN(Cc3ccccc3)CC2)ccc1N1CC2CC(C1)c1cccc(=O)n1C2)c1cccnc1 (configuration not stated)	0.155	·
CNCC(=O)Nc1cccc2ccccc12	·	-0.6
CCOC(=O)c1nc(Nc2cc(Cl)ccc2OC)c2ccccc2n1	-0.6	·
O=C(NCCc1ccccc1)c1ccc2ncccc2c1	0.22	-0.1
CCCN(CCC)S(=O)(=O)c1ccc(C(=O)NNC(=O)OCc2ccc(C(C)(C)C)cc2)cc1	0.77	·
CC(=O)NC1C(=O)SC1(C)C (configuration not stated)	-0.36	1.45
CC1CCc2c(sc3ncnc(SCC#N)c23)C1 (configuration not stated)	·	0.15
O/N=C/c1cn(-c2ccccc2)nc1-c1ccccc1	·	0.05
CCOC(=O)CSc1nc2ccsc2c(=O)n1Cc1ccccc1	0	-0.3
CSCCC1(C(=O)O)NC(c2ccc(O)cc2O)C2C(=O)N(Cc3ccccc3)C(=O)C21 (configuration not stated)	-0.395	·
CCc1ccc(NC(=O)C(CC)CC)cc1	0.17	-0.45
C/C(CC1(O)C(=O)Nc2ccccc21)=N\O (configuration not stated)	-0.02	-0.05
COc1cc2cc(-c3ccccc3)nc(Cc3ccccc3)c2cc1OC	5.02	·
COC(=O)c1ccccc1NC(=O)c1cc(OC)c(OC)c(OC)c1	4.43	·
N#CC1(NC(=O)COC(=O)c2ccc3c(c2)CCCC3)CCCCC1	·	0.8
Cc1ccccc1Oc1ncnc2sc3c(c12)CCCC3	0.89	-0.25

Some of these compounds in order of count of non-hydrogen atoms, descending.
compound	Ba CapD inh	AID504770
COc1cc2cc(-c3ccccc3)nc(Cc3ccccc3)c2cc1OC	5.02	·
CCOC(=O)CSc1nc2ccsc2c(=O)n1Cc1ccccc1	0	-0.3
O=C(NCCc1ccccc1)c1ccc2ncccc2c1	0.22	-0.1
c1ccc2c(c1)C(=Nn1cnnc1)c1ccccc1-2	-0.89	0.75
C/C(CC1(O)C(=O)Nc2ccccc21)=N\O (configuration not stated)	-0.02	-0.05

Going on with the list:
compound	Ba CapD inh	AID504770
O=C(Nc1nc2ccccc2n1CCN1CCOCC1)C1CCCCC1	-0.07	0.25
O=c1cc(CO)oc(CN2CCc3ccccc3C2)c1O	-0.985	-0.45
O=C(CS(=O)(=O)c1c[nH]c2ccccc12)N1CCCCC1	0.085	-0.45
Clc1ccc(OCCOc2ccc(Cl)cc2)cc1	-0.485	·
Clc1ccc(-c2cnn(CCOCc3ccccc3)c2)cc1	-0.085	·
CC(C)CNc1ncnc2c1sc1nc3c(cc12)COC(C)(C)C3	4.18	1.5
CSc1sc(C(C)=O)c(N)c1C#N	-0.33	·
Cn1c(=O)c2c(nc(S(C)(=O)=O)n2C)n(C)c1=O	0.55	-0.55
CCOC(=O)N1CCN(C(=O)c2ccc(N3CC4CC(C3)c3cccc(=O)n3C4)c(NC(=O)/C=C/c3ccccc3)c2)CC1 (configuration not stated)	0.13	·
COc1ccc(/C=C/C(=O)NCCN=C2NS(=O)(=O)c3ccccc32)cc1	1.04	0.05
CCc1nc2c(cnn2-c2ccccc2)c2nncn12	0.715	-0.9
CCc1ccccc1NC(=O)CC(NCC1CCCO1)C(=O)O (configuration not stated)	-0.075	1.5
C=CCN(CC=C)Cn1nc(-c2c[nH]c3ccccc23)oc1=S	·	-0.5
O=C(Cn1c(-c2cscn2)nc2ccccc21)OCCOc1ccc(Br)cc1	·	0.7
CN(C)S(=O)(=O)c1ccc(C(=O)N=c2sc3cc(S(C)(=O)=O)ccc3n2C)cc1	0.055	0.7
O=C(CSc1nccc(=O)[nH]1)NN(c1ccccc1)c1ccccc1	·	-0.55
CCOC(=O)C(CC)n1cnc2c(nnn2Cc2ccc(C)cc2)c1=O (configuration not stated)	0.555	1.45
O=C(O)CCSc1nc2ccccc2[nH]1	0.265	0.15
O=C(CSc1ccccc1C(=O)O)Nc1cccc(C(F)(F)F)c1	-0.75	-0.8
CCCOc1ccc(C2C(C(=O)OC)=CN(Cc3ccc(Cl)cc3)C=C2C(=O)OC)cc1OC	9.61	·
O=C(CC(c1ccc(F)cc1)N1Cc2ccccc2C1=O)NCc1ccco1 (configuration not stated)	-0.18	0.55
OC(COc1cccc(C(F)(F)F)c1)CN1CCN(c2nc(-c3ccccc3)ns2)CC1 (configuration not stated)	0.565	-0.35
Cc1c(NC(=O)CCN2C(=O)/C(=C\c3ccc(F)cc3)SC2=S)c(=O)n(-c2ccccc2)n1C	0.065	·
Cc1ccc(C2C(Cc3ccccc3)N3C=Cc4ccccc4C3C2(C#N)C(N)=O)c(C)c1 (configuration not stated)	3.07	-0.05
c1ccc2c(CN3CCSCC3)c[nH]c2c1	0.44	1
CC(C)CCN1C(=O)c2ccccc2C1C(=O)NCc1cccnc1 (configuration not stated)	0.305	1.55
COc1ccc(CNC(=O)c2cnc(Nc3ccccc3OC)c3ccccc23)cc1	0.06	·
COC(=O)c1ccccc1NC(=O)c1cc(-c2ccccc2O)on1	-0.16	-0.55
Cc1noc(C)c1NC(=O)Nc1cccc(-n2cccc2)c1	0.495	0.8
Cc1ccc(C)n1CC1CCNCC1	-0.63	-0.7
COc1ccc(C2=NCC(CSc3nc4cc(Cl)ccc4o3)S2)cc1 (configuration not stated)	·	-0.6
COC(=O)C1=C(C)N(c2ccccc2)/C(=C/c2cccs2)C1=O	-0.74	-0.7
CCCN1C(=O)c2ccccc2NC1c1cccc(O)c1O (configuration not stated)	·	-0.8
O=C(Nc1ccccc1C(=O)N1CCN(c2ccc(F)cc2)CC1)C1=CSCCO1	0.22	-0.25
COc1ccc(/C=C/C(=O)NNc2nc(C)cc(=O)[nH]2)cc1	·	-0.15
O=C(Nc1cc(C(=O)N2CCN(c3ccc(F)cc3)CC2)ccc1N1CC2CC(C1)c1cccc(=O)n1C2)c1cccs1 (configuration not stated)	0.135	·
O=C(Nc1ccccc1)O/N=C1\CCc2ccccc21	0.245	-0.2
CCCOC(=O)c1cc(=O)[nH]c2ccccc12	·	-0.8&-1.7
O=S(=O)(CCC1CCCC/C1=N/O)c1ccc(Cl)cc1 (configuration not stated)	-0.145	-0.5
CCSC1=NCCN1C(=O)c1ccc(S(=O)(=O)N(C)C)cc1	·	0.45

Entries listed so far that contain a Cl atom (7):
compound	Ba CapD inh	AID504770
Cc1cc(NNC(=O)c2ccc(Cl)cc2)nc2c1c(C)nn2C	-0.44	0.8
CCOC(=O)c1nc(Nc2cc(Cl)ccc2OC)c2ccccc2n1	-0.6	·
Clc1ccc(OCCOc2ccc(Cl)cc2)cc1	-0.485	·
Clc1ccc(-c2cnn(CCOCc3ccccc3)c2)cc1	-0.085	·
CCCOc1ccc(C2C(C(=O)OC)=CN(Cc3ccc(Cl)cc3)C=C2C(=O)OC)cc1OC	9.61	·
COc1ccc(C2=NCC(CSc3nc4cc(Cl)ccc4o3)S2)cc1 (configuration not stated)	·	-0.6
O=S(=O)(CCC1CCCC/C1=N/O)c1ccc(Cl)cc1 (configuration not stated)	-0.145	-0.5

Carrying on:
compound	Ba CapD inh	AID504770
CCCC(=O)Nc1ccc(-c2nc3cc(C(C)C)ccc3o2)cc1	-0.49	0
CNC(=O)C(C)n1ccc2cc(S(=O)(=O)N3CCCC3)ccc21 (configuration not stated)	0.425	0.2
CCSC1=N/C(=C\c2cccnc2)C(=O)N1c1ccccc1	-0.265	-2.05
CC(=O)N(Cc1c(C#N)c2ccccc2n1C)c1ccccc1	·	-0.45
Cc1ccc(CSc2nc3c(c(Oc4cccc(Cl)c4)n2)CCCC3)cc1	-0.245	·
O=C(O)c1cc(N2C(=O)/C(=C/c3ccc(-c4ccc(Cl)c(Cl)c4)o3)C=C2c2ccccc2)ccc1O	0.145	·
COC(=O)C1=C(C)N(c2ccc(OC)cc2)C(C)=C(C(=O)OC)C1c1ccccc1	4.47	-0.05
Cc1ccc2[nH]cc(CCNC(=O)c3ccccc3)c2c1	-0.855	1.65
CSc1ncc(C(=O)NNC(=O)OCC#Cc2ccccc2)n1C	-0.285	·
O=C(O)CCC(=O)N1CCc2ccccc21	0.34	-0.4
Cc1cc(NC(C)c2ccccc2)cc(=O)n1Cc1ccco1 (configuration not stated)	·	1.25
O=C(O)c1cccnc1SC1CC(=O)N(Cc2ccccc2)C1=O (configuration not stated)	79.7	-0.1
COC(=O)c1scc(C)c1NC(=O)C1=Cc2cc(Cl)ccc2OC1	2.01	1.45
CCc1nc(C)cn1S(=O)(=O)c1ccc2c(c1)OCCO2	·	0.3
Cn1ncc(C(=O)Nc2cc(Cl)ccc2Cl)c1-n1cccc1	0.48	2.25
O=C(C1CCCCC1)N1CCN(Cc2ccccc2)CC1	-0.605	0.15
CCCCCn1c(SCC(=O)CC(=O)OCC)nc2cc(C(=O)N3CCC(C(N)=O)CC3)ccc2c1=O	0.24	·
O=S(=O)(Cc1ccccc1)C1CCCCC1O (configuration not stated)	0.09	-1
Cc1cccc(CN2CCN(C(=O)COc3ccccc3)CC2)c1	·	0.45
CN(C)CC(C)(C)CNc1ccc(S(=O)(=O)N2CCCC2)cn1	·	1.9
Cc1ncc([N+](=O)[O-])n1CCNS(=O)(=O)c1ccc(C#N)cc1	-0.7	·
CN(C)C(=O)c1cccn1-c1ncc(C(F)(F)F)cc1Cl	-0.425	-0.05
CCc1ccc(NC(=O)N(Cc2ccco2)C2CCN(C(C)=O)CC2)cc1	0.585	0.4
CCOc1cc(C2Nc3ccccc3NC3=C2C(=O)CC(c2ccc(OC)c(OC)c2)C3)cc(Br)c1O (configuration not stated)	-0.91	·
COc1cccc(CCNC(=O)OCCCCc2ccc([N+](=O)[O-])cc2)c1	-0.235	·
C=CCN=C1NN(c2ccc3c(c2)OCCO3)C(C(=O)Nc2ccccc2)=C(C)S1	0.34	-0.45
O=C(CNCCO)N1N=C(c2cccs2)CC1c1cccs1 (configuration not stated)	·	0.85
CC1=C(C#N)C(c2ccccc2C(F)(F)F)C2=C(CCCC2=O)N1 (configuration not stated)	23	0.7
COc1ccc(N2C(=O)c3c(c4ccccc4n3C)C2c2ccc(NC(C)=O)cc2)cc1 (configuration not stated)	3.42	-0.8
CCN=C1S/C(=C\c2ccc(-c3cccc(C(=O)O)c3)o2)C(=O)N1CC	-0.44	-0.6
Cc1cc(NC(=O)NN2CCOCC2)nn1-c1c(Cl)cccc1Cl	8.19	-0.45
O=C(CN1C(=O)CS/C1=C\c1nc2ccccc2s1)c1cc2ccccc2o1	·	0.95
Cc1ccc(N(C(=O)C(F)(F)F)C(C(=O)NC2CCCC2)c2cccs2)cc1F (configuration not stated)	-0.005	-0.85
Cc1nc(COC(=O)c2cccc(S(=O)(=O)N3CCc4ccccc43)c2)cs1	·	0
COC(=O)c1sccc1-c1ccc(/C(C)=N/NC(N)=O)o1	6.46	-0.75
NC1=NC2(O)c3ccccc3C(=O)C2(O)NN1 (configuration not stated)	-0.36	·
COc1ccc2[nH]c3nc(=S)[nH]nc3c2c1	-0.54	-0.15
CCc1cccc2cc(CN)c(=O)[nH]c12	·	1.05
CCCc1nc2c([nH]1)C(c1cccc(O)c1)C(C#N)=C(N)O2 (configuration not stated)	-0.08	0.55
CC(C)(C)n1cnc2cc(NCc3ccccc3O)ccc21	36.5	0.15
CCOC(=O)C1=NN(c2ccc(C)cc2)C2(S1)c1ccccc1C(c1ccc(Br)cc1)=NN2c1ccccc1 (configuration not stated)	-1.94	·
Cc1ccc(N(CC#N)C(=O)Nc2ccc(Cl)cc2)cc1	·	-0.55
O=C(NC(=S)NNc1nc2ccccc2s1)c1ccco1	·	0.2
O=C(NC(=S)NNc1ncccc1-n1cccc1)c1ccccc1	-0.405	-0.35
CSc1sc(SC)c(C[n+]2ccccc2)c1C[n+]1ccccc1	-0.535	-0.35
O=S(=O)(c1cccc(Cl)c1Cl)N1CCN(c2ncccc2C(F)(F)F)CC1	-0.36	·
Cc1cc(N2S(=O)(=O)c3ccccc3S2(=O)=O)ccc1Br	0.51	-0.4
N#CCOC(=O)c1ccccc1C(=O)c1cccs1	·	-0.35
CN(C)c1ccc(C=Nc2ccc3[nH]c(=O)[nH]c3c2)cc1	0.85	-1.2
CC[N+]1(CC)Cc2cc3ccccc3cc2C1	2.96	-1.5
CCN(CC)c1cc(-c2cccs2)nc(SCC(=O)c2cccs2)c1C#N	37.6	1.9
O=C(Oc1c(-c2ccco2)oc2ccccc2c1=O)c1cccs1	0.555	-0.1
Cc1ccc(C(=O)Nc2nc(-c3ccc(C#N)cc3)cs2)cc1	i	0.1
COC(=O)c1cn(-c2ccccc2)nc1-c1ccccc1	-0.83	-0.25
CC1(C)CC(NC(=O)c2ccc3c(c2)OCO3)CC(C)(C)N1	0.15	-0.2
COC(=O)/C(=C\Nc1ccc(OCc2ccccc2)cc1)n1cncn1	0.195	·
COc1ccc(C2OCCCO2)c(Cl)c1OC	0.655	-0.7
CCOC(=O)Cc1csc(NC(=O)COc2c(C)cccc2C)n1	-0.38	-0.35

Screening data from PubChem BioAssay.
